# Screening results: PubChem BioAssay, ICCB-Longwood Screening Facility, Harvard Medical School
# PV pol inh: poliovirus RNA polymerase inhibition; % elongation, % (compound at 16.7 µg/mL); 0.66% of 150,000 active; poliovirus polymerase elongation, fluorescence polarization; hits give low values; P03300; AID 588519; in the data active = % elongation below about 90%; note: some results filed as inactive read as strong as hits
# MenB inh: Mtb MenB enzyme inhibition; MenB enzyme assay, absorbance read-out; some hits fall short of the stated cut; inhibition, %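 (about 12 µg/mL by stock and volumes)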; 0.43% of 100,000 active; AID 540299;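 active = mean of two replicates above 30%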;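 note: 0% = no compound and 100% = wells with inactive enzyme; the first replicate is given; strong numbers were not always called active; inactives centre near -10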
# Target sequence (P9WNP5 whole entry, looked up): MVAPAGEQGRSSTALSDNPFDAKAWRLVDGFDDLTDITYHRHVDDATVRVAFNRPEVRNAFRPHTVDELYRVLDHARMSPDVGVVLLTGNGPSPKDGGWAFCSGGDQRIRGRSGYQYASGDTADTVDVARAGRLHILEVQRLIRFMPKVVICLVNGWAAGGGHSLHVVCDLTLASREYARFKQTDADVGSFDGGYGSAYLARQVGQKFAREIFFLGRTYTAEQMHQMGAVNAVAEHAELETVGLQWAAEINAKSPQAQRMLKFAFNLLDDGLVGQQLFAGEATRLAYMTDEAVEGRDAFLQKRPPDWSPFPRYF
# Mtb MbtI inh: inhibitors of Mycobacterium tuberculosis siderophore enzyme MbtI; P9WFX0; 0.89% of 100,000 active; AID 493033; purified MbtI enzyme, fluorescence intensity read-out; inhibition, %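 (about 17 µg/mL by stock and volumes)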;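 active = above 50% in both replicates, above 80% if mildly self-fluorescent; inactive = the rest, strongly fluorescent compounds included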;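 note: 0% = mean of negative and 100% = mean of positive controls; one replicate is shown; some compounds called inactive have numbers as strong as hits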
# Target sequence (P9WFX0 whole entry, looked up): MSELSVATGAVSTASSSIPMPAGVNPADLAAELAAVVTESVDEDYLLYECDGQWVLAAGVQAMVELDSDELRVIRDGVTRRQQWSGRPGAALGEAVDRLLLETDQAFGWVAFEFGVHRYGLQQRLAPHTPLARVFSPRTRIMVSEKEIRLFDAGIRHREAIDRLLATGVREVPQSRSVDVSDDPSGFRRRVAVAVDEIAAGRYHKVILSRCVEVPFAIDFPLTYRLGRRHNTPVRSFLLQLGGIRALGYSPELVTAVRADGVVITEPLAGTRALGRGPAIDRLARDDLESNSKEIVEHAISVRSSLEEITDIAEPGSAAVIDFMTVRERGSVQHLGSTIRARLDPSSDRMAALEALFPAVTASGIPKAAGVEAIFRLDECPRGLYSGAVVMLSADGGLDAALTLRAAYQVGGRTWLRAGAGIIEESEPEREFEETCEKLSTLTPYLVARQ
# PV pol inh intensity: recorded beside PV pol inh, whose call it bears; % elongation; measured here: total intensity read-out; formula for this scale not given here;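 total fluorescence in place of polarization; lower means less elongation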
# Numbers without * were called inactive; i = inactive; / = no result given; & = joins results of further samples.
1: CC1=C(C(=O)Nc2ccc(C)cc2C)C2(CCN(S(C)(=O)=O)CC2)OC1=O
2: CCOc1ccc(NC(=O)CN(C)C(C)c2nnc(-c3cccs3)o2)cc1OCC (stereo not drawn)
3: N#CC1(C#N)C(c2ccccc2Cl)C(C(=O)C2CC2)N2C=CC=CC21 (stereo not drawn)
4: O=C(c1ccccc1O)N1CCN(c2ccccc2)CC1
5: CC(C)(C)c1cc(-n2nc3ccccc3n2)c(O)c(C(C)(C)C)c1
entry no.	1	2	3	4	5
PV pol inh	99	102	122	98	104
PV pol inh intensity	102	103	141	101	98
MenB inh	-15	-12	-2	-6	11
Mtb MbtI inh	-7	-1	11	-11	12

6: Cc1csc(/N=C/N(C)C)n1
7: Cc1noc(C)c1COc1ccc(C(=O)Nc2ccc(F)c(Cl)c2)cc1
8: COC(=O)/C=C/c1ccc(OC(=O)c2ccncc2)cc1
9: CCOC(=O)N1CCC(NC(=O)c2cc3c(-c4ccccc4F)nn(C)c3s2)CC1
10: COc1ccc(-c2[nH]nc(SC)c2C#N)cc1
entry no.	6	7	8	9	10
PV pol inh	104	103	98	103	108
PV pol inh intensity	107	105	104	107	112
MenB inh	-22	8	-22	-15	-24
Mtb MbtI inh	13	-7	-5	1	-21

11: O=P(CCN1CCOCC1)(c1ccccc1)c1ccccc1
12: O=C(CSc1ccccc1Cl)NC1CCCCCC1
13: CCN(CC)CCCNc1cc(C)c2ccc(OC)cc2n1
14: O=C(NCCN=C1NS(=O)(=O)c2ccccc21)c1ccc(F)cc1
15: CCOC(=O)c1oc2ccc(S(=O)(=O)Nc3cc4c(cc3C)n(C)c(=O)c(=O)n4C)cc2c1C
entry no.	11	12	13	14	15
PV pol inh	102	101	96	103	102
PV pol inh intensity	108	107	152	101	104
MenB inh	-4	/	-18	-15	-12
Mtb MbtI inh	/	-8	98	2	-16

16: COc1ccc(OCCn2cc(C#N)c3ccccc32)cc1
17: CCc1ccc(NC(=O)Cn2cnc3c(cnn3C)c2=O)cc1
18: Cc1cc(C)nc(NNC(=O)NC2CCCCC2)n1
19: Cc1cccc(NC(=O)/C=N/OC(=O)Nc2ccccc2)c1
20: CCOC(=O)CC1=CSC(NC)N1c1c(C)cc(C)cc1C (stereo not drawn)
entry no.	16	17	18	19	20
PV pol inh	101	102	101	101	107
PV pol inh intensity	90	101	91	99	106
MenB inh	-15	-36	-26	7	-12
Mtb MbtI inh	/	-15	-15	2	9

# Reformatted bar-delimited: four of the compounds above.
No. | Molecule | PV pol inh | PV pol inh intensity | MenB inh | Mtb MbtI inh
6 | Cc1csc(/N=C/N(C)C)n1 | 104 | 107 | -22 | 13
7 | Cc1noc(C)c1COc1ccc(C(=O)Nc2ccc(F)c(Cl)c2)cc1 | 103 | 105 | 8 | -7
8 | COC(=O)/C=C/c1ccc(OC(=O)c2ccncc2)cc1 | 98 | 104 | -22 | -5
9 | CCOC(=O)N1CCC(NC(=O)c2cc3c(-c4ccccc4F)nn(C)c3s2)CC1 | 103 | 107 | -15 | 1

# Going on with the list:
21: Cc1c(Cl)ccc2c(=O)c(C(=O)O)c[nH]c12
22: Cc1ccc(/C=N/n2cnc3sc4c(c3c2=O)CCCC4)o1
23: Cc1ccc(CNC(=O)CSc2nc(NC3CCCCC3)c3ccccc3n2)cc1
24: CC(C)C(=O)Nc1nc(NC(=O)C(C)C)nc(-c2ccccc2C(F)(F)F)n1
25: O=C(O)CCC(=O)OC[C@@H](NC(=O)C(Cl)Cl)[C@H](O)c1ccc([N+](=O)[O-])cc1
entry no.	21	22	23	24	25
PV pol inh	105	99	104	100	100
PV pol inh intensity	100	103	107	101	102
MenB inh	-10	4	-30	2	-1
Mtb MbtI inh	0	12	3	1	-15

26: O=C(O)c1ccc2nc(-c3ccccc3)sc2c1
27: Cc1cc(C)nc(N/N=C/c2c(O)n(C)c(=O)n(C)c2=O)n1
28: O=C(Cn1nc(Cc2cccnc2)c2ccccc2c1=O)NCCc1ccc(Cl)cc1
29: CC(Oc1ccccc1)C(=O)Nc1ccc(-c2nnc(-c3ccccc3)o2)cc1 (stereo not drawn)
30: COC(=O)c1cc2sc(Cl)cc2n1Cc1nc(-c2ccc(OC)c(OC)c2)oc1C
entry no.	26	27	28	29	30
PV pol inh	100	103	100	100	103
PV pol inh intensity	100	105	97	101	106
MenB inh	-19	-27	-13	-49	-13
Mtb MbtI inh	31	14	-12	i	1

# Of the compounds above, two contain a furan ring, fused or not:
15: CCOC(=O)c1oc2ccc(S(=O)(=O)Nc3cc4c(cc3C)n(C)c(=O)c(=O)n4C)cc2c1C
22: Cc1ccc(/C=N/n2cnc3sc4c(c3c2=O)CCCC4)o1
entry no.	15	22
PV pol inh	102	99
PV pol inh intensity	104	103
MenB inh	-12	4
Mtb MbtI inh	-16	12

# (further entries)
31: CCOC(=O)/C(C#N)=C1\CCCCCN1
32: CCCN1CCCc2cc(CN)ccc21
33: CCC1Sc2ccc(S(=O)(=O)CCC(=O)N3CCCc4ccccc43)cc2NC1=O (stereo not drawn)
34: CC1(C)C(c2ccco2)=[N+]([O-])C(C)(C)N1O
35: Cn1nc(-c2ccccc2F)c2cc(C(=O)Nc3ccc(S(N)(=O)=O)cc3)sc21
entry no.	31	32	33	34	35
PV pol inh	103	26*	99	102	100
PV pol inh intensity	107	48*	100	101	99
MenB inh	/	-77	-23	4	-5
Mtb MbtI inh	-4	31	-14	20	18

36: Oc1ccc(/C=C2/NC(=S)Nc3nc(Nc4ccccc4)sc32)cc1
37: C=CCn1c2ccc(Br)cc2c2nc3ccccc3nc21
38: COc1cccc(-c2nc(SCN3C(=O)c4ccccc4C3=O)[nH]c(=O)c2C#N)c1
39: CC1=NN(c2ccccc2)C(=O)C1C(=O)c1ccc(F)cc1 (stereo not drawn)
40: O=C(COc1ccc(Oc2ccccc2)cc1)NCc1cn2ccccc2n1
entry no.	36	37	38	39	40
PV pol inh	123	101	99	102	100
PV pol inh intensity	135	104	98	103	106
MenB inh	-12	6	0	-40	/
Mtb MbtI inh	/	-3	16	-1	-83

41: O=C(N/N=C/c1cccc(Br)c1)c1ccccc1O
42: C=CCn1c(=O)/c(=C/c2ccc3c(c2)OCO3)s/c1=C(/C#N)C(N)=O
43: COc1ccc(OCCCC(=O)N2CCN(S(=O)(=O)c3ccccc3C(F)(F)F)CC2)cc1
44: Cc1c(C(=S)Nc2ccccc2)sc2ccccc12
45: O=C(Nc1ccc(F)cc1F)c1ccccc1C(F)(F)F
entry no.	41	42	43	44	45
PV pol inh	111	99	102	98	101
PV pol inh intensity	110	97	108	103	110
MenB inh	-79	-32	-5	-48	-14
Mtb MbtI inh	5	0	-8	-6	-4

46: CCn1c(=O)c2c3c(sc2n2c(=S)[nH]nc12)CCCC3
47: NS(=O)(=O)c1ccc(CCNCc2cccs2)cc1
48: O=C(NC1CCCCC1)C(c1ccco1)N(Cc1cccs1)C(=O)C(F)(F)F (stereo not drawn)
49: O=C(CSc1ccc2c(c1)OCCO2)NC(=O)NCc1ccco1
50: CCc1nn(CC(=O)NC2CCN(Cc3ccccc3)CC2)c(=O)c2cc3sccc3n12
entry no.	46	47	48	49	50
PV pol inh	105	100	102	98	98
PV pol inh intensity	104	101	103	95	102
MenB inh	-57	9	7	-52	14
Mtb MbtI inh	41	-3	-7	4	-1

51: Cc1c(C(=O)NCCCN2CCOCC2)cc(C(C)(C)C)n1-c1ccccc1
52: Cc1ccc(Cn2c(=O)c3ccccc3n3c(SCc4nc5ccc(Cl)cc5n4CCO)nnc23)cc1
53: O=C(CCCc1nc2ccccc2s1)OCc1nnc(-c2cccs2)o1
54: N#Cc1c(C(F)(F)F)cc(-c2cccs2)nc1SCC(=O)c1ccccc1
55: COc1ccc(-c2noc(COC(=O)CSc3nc4ccccc4o3)n2)c(OC)c1
entry no.	51	52	53	54	55
PV pol inh	102	109	102	110	100
PV pol inh intensity	102	122	93	153	104
MenB inh	-14	-25	-46	-22	5
Mtb MbtI inh	-3	14	8	/	1

56: CCSc1nn2c(=O)c(C(C)(C)C)nnc2s1
57: Cc1ccc(OCCNC(=O)Cc2ccsc2)cc1
58: CN1C(=O)c2ccccc2Sc2ccc(NC(=O)NCc3ccco3)cc21
59: Cc1ccc(SC(C)C(=O)Nc2ncn[nH]2)cc1 (stereo not drawn)
60: CCOc1ccc(NC(=O)C(C#N)=C2CCCCCC2)cc1
entry no.	56	57	58	59	60
PV pol inh	103	104	101	100	103
PV pol inh intensity	98	102	103	102	109
MenB inh	14	14	10	-43	-6
Mtb MbtI inh	14	2	-8	-11	/

61: CN(Cc1cccc(Cl)c1Cl)CC(O)COCc1ccccc1 (stereo not drawn)
62: COc1ccc(NC(=O)CSCC(=O)O)cc1
63: O=S(=O)(CC(O)COc1ccccc1)c1ccccn1 (stereo not drawn)
64: O=S(=O)(c1ccc(-n2cnnn2)cc1)N1CCCCCCC1
65: O=C(N1CCOCC1)N1CCOCC1
entry no.	61	62	63	64	65
PV pol inh	108	102	102	103	99
PV pol inh intensity	110	102	109	100	102
MenB inh	-5	-38	-11	-8	17
Mtb MbtI inh	-4	6	/	-11	-10

66: NC(=O)c1c(NC(=O)CN(CCO)c2ccccc2)sc2c1CCC2
67: CS(=O)(=O)N1CCC(C(=O)N2CCCCC2)CC1
68: Cc1occc1-c1nnc2n1N=C(c1ccc(-c3cc(Cl)ccc3Cl)o1)CS2
69: CCCCNc1ncnc2nc[nH]c12
70: COC(=O)CC1C(=O)NCCN1C(=O)CSc1nnc(-c2ccccc2)o1 (stereo not drawn)
entry no.	66	67	68	69	70
PV pol inh	108	101	100	103	104
PV pol inh intensity	115	105	100	104	108
MenB inh	-3	2	1	-15	-17
Mtb MbtI inh	-5	16	98*	-1	9

71: COc1ccc(C(=O)/C=C\Nc2ccc(S(=O)(=O)N=C(N)N)cc2)cc1OC
72: CNC(=O)c1cc(-c2ccc(OC)cc2)nc2ccccc12
73: Cc1ccccc1NC(=O)CC1SC(N2CCCCC2)=NC1=O (stereo not drawn)
74: Cc1noc(-c2ccc(Cl)cc2)c1NC(=O)NN1CCCCC1
75: Cc1ccccc1NCC(=O)N1CCc2ccccc21
entry no.	71	72	73	74	75
PV pol inh	104	103	/	100	101
PV pol inh intensity	99	103	/	102	97
MenB inh	-247	0	-39	7	/
Mtb MbtI inh	-46	89	-10	3	-1

76: Cc1cc(Nc2nc3ccccc3nc2Cl)n(-c2ccccc2)n1
77: COc1cccc(NC(=O)c2ccnc(C(C)(C)C)c2)c1
78: OC(CNc1nc2ccccc2s1)c1ccccc1 (stereo not drawn)
79: COCC(=O)/C=C1\Sc2ccccc2N1C
80: Cc1ccc(N2COc3ccc(C(C)(C)C)cc3C2)cc1
entry no.	76	77	78	79	80
PV pol inh	102	100	104	105	102
PV pol inh intensity	95	100	105	102	101
MenB inh	/	3	-7	-24	4
Mtb MbtI inh	-4	3	/	19	6

81: CCCc1[nH]n(-c2nc3ccccc3s2)c(=O)c1C(C)=Nc1ccc(C(=O)OCC)cc1
82: O=C1C2CC=CCC2C(=O)N1CNc1ccccc1 (stereo not drawn)
83: COc1cc2cc(C)nc(Cc3cccc4ccccc34)c2cc1OC
84: Cc1c(C(=O)NC(C)C)oc2ccccc12
85: COc1cc(=O)n(C)c2c(OCC(O)C(C)(C)O)cccc12 (stereo not drawn)
entry no.	81	82	83	84	85
PV pol inh	102	103	101	100	99&101
PV pol inh intensity	104	104	106	101	103&101
MenB inh	-23	-4	-13	-22	3&3
Mtb MbtI inh	-174	5	9	3	-7&-18

86: NS(=O)(=O)c1ccc(CCN2C(=O)CSC2=S)cc1
87: O=C(NCCc1c[nH]c2ccccc12)c1cc(CN2CCCC2)on1
88: COc1ccc(N(C(C)=O)S(=O)(=O)c2cc(OC)ccc2OC)cc1
89: COCC(C)NC(=S)NC1CC(C)(C)NC(C)(C)C1 (stereo not drawn)
90: CC1CCN(c2ncccc2C(=O)NC2CCCCC2)CC1
entry no.	86	87	88	89	90
PV pol inh	/	102	101	101	105
PV pol inh intensity	/	102	101	105	105
MenB inh	-52	11	6	10	-11
Mtb MbtI inh	3	0	-3	-2	7

91: C=C(C)Cn1nc(C)c(-c2cc(C(=O)O)[nH]n2)c1C
92: O=C1NC(Cc2ccc(O)cc2)C(=O)N1C12CC3CC(CC(C3)C1)C2 (stereo not drawn)
93: O=C(O)c1ccc(N=NN2CCCCC2)cc1
94: COc1ccc(C(=O)Nc2nccs2)cc1S(=O)(=O)N(C)Cc1ccccc1
95: O=c1[nH][nH]c(=O)n1CCCc1cc2cccc3ccc4cccc1c4c32
entry no.	91	92	93	94	95
PV pol inh	101	/	101	103	106
PV pol inh intensity	102	/	103	104	102
MenB inh	-15	-17	17	-17	-3
Mtb MbtI inh	-2	-14	13	88	-68

96: Cc1ccc(-c2nc3ccccc3[nH]2)cc1N=Cc1cc(Br)ccc1O
97: Cc1ccc2nc(CC#N)[nH]c2c1
98: CC(=O)Oc1ccc2cc(-c3nc(-c4ccccc4)c(C)s3)c(=O)oc2c1
99: O=C(O)CCCc1ccc(N(CCCl)CCCl)cc1
100: O=C1Nc2cc(C(=O)N3CCC(Cc4ccccc4)CC3)ccc2Sc2ccccc21
101: CCC(C)NC(=O)C1CCCN(S(=O)(=O)c2cccc3cccnc23)C1 (stereo not drawn)
102: CCC(OC(=O)CC1Sc2ccccc2NC1=O)C(=O)NC1CCCC1 (stereo not drawn)
103: CCCn1c(CCCNC(=O)c2ccc(OC)c(OC)c2)nc2ccccc21
entry no.	96	97	98	99	100	101	102	103
PV pol inh	111	/	71	99&93	101	101	103	102
PV pol inh intensity	108	/	193	100&115	97	103	100	105
MenB inh	-34	-24	-16	4&-9	-6	-9	29	-19
Mtb MbtI inh	/	5	-7	-9&-31	16	-15	4	-5
